# Compound activity: PubChem BioAssay, National Center for Advancing Translational Sciences (NCATS)
# TRPML1 blocker – blocks the human TRPML1 channel. Q9GZU1. TRPML1-inducible cells, Ca2+ dye fluorescence, FDSS; active compounds read low; inhibition of EC80 agonist-evoked calcium signal. activity change, negative = inhibition, % (concentration not given with the values). 390,000 compounds, 0.02% hits; in the data active means activity change below about -50%; inconclusive means about -30% to -50%; inactive means above about -30%;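 also: stimulus is agonist 54-4 at its EC80 concentration; % is scaled to controls: 0 for no effect and ±100 for the full control effect; the text of the record puts the active cut at -80%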
# Target sequence (Q9GZU1 whole entry, looked up): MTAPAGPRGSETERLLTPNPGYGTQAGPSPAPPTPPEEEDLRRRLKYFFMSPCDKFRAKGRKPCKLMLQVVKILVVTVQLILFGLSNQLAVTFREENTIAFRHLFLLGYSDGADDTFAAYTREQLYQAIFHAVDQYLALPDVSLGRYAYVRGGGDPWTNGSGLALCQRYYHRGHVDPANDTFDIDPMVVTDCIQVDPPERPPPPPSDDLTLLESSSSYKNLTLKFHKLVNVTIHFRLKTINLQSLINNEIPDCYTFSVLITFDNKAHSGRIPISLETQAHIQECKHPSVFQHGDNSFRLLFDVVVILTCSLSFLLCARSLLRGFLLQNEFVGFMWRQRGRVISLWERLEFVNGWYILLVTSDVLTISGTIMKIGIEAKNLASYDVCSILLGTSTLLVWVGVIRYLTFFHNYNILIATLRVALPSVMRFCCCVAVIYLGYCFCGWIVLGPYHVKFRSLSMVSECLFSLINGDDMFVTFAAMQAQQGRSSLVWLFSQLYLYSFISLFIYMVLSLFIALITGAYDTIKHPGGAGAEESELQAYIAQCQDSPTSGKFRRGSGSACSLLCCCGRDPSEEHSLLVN
#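 Tet-induced TRPML1-DL cells loaded with Ca8 no-wash calcium dye were read kinetically on FDSS. Compound addition was followed by EC80 agonist 54-4 (4 uM final); inhibition was read over 110 s.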
# TRPML1 ag – human mucolipin-1 channel agonism; Q9GZU1; TRPML1-expressing cells, Ca2+ dye fluorescence, FDSS; host cell line not named in the record; reference of the full effect not given here; activation, % (no concentration beside the values); 410,000 compounds, 0.12% hits; AID 624414; in the data active = activation above about 50%; inconclusive = about 30% to 50%; inactive = below about 30%; also: 0% is about no effect; the text of the record puts the active cut at 80%
#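 Agonist activity was taken from a 110 s kinetic Ca2+ dye read on the FDSS after pinning compounds onto TRPML1-DL cells. The cells were seeded at 1,500/well with Tet inducer, incubated about 16 h, then dye-loaded at room temperature.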
# Sfp PPTase inh – blocks B. subtilis Sfp PPTase activity; Q9F4F7; Biochemical Sfp PPTase activity, qHTS; Potency, µM, for inactives: max response, negative = inhibition, actives largely listed as inhibitors; 310,000 compounds, 3.5% hits; AID 1490; active = well fitted inhibition curve with a large enough effect; inconclusive = small, poorly fitted or top-dose-only effect, or another doubt; inactive = no such curve, though single readings can be large or run the other way;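 also: the enzyme is Sfp with the accession as filed and its product quenches rhodamine fluorescence; potency is read from the fitted curve at half-maximal effect; 0% = enzyme reaction without inhibitor and -100% = no enzyme wells; top concentration of the series not given in the record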
#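 Reaction rates are the 30-min fluorescence difference (ex 525, em 598 nm) in wells containing 15 nM Sfp, 5 uM rhodamine-CoA and 12.5 uM BHQ-2-YbbR at pH 7.6 with 10 mM MgCl2.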
# TRPV1 PAM – human TRPV1 potentiation | Q8NER1 | TRPV1-expressing cells, Fluo-8 calcium influx, capsaicin EC20 potentiation; host cell line not named in the record; control for the full effect not named in the record | potentiation, % at 8.33 µM | 320,000 compounds, 0.02% hits; active means potentiation above 80%; inconclusive means 30% to 80%; inactive means below 30%; also: 0% is about no effect
#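 TRPV1-expressing cells were cultured overnight at 35.5C and loaded with Fluo-8 calcium dye for 40 to 90 min at room temperature. After a 10 s baseline, compound was added and calcium influx was read kinetically for 3 min (ex 480/em 520 nm).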
# ClpP mod – qHTS Assay for Activators of ClpP | ATP-dependent Clp protease proteolytic subunit (Bacillus subtilis (strain 168)), P80244 | purified B. subtilis ClpP, FRET peptide cleavage, 20 min | Potency, µM (highest dose often 57.5 µM), inactives show at the highest dose activity change, negative = active | 340,000 compounds, 1.9% hits; active = well fitted falling curve with a large enough effect; inconclusive = small, poorly fitted or top-dose-only effect; inactive = no such curve, though single readings can be large or run the other way; also: potency is read from the fitted curve at half-maximal effect; the source files actives as falling curves though it sought activators and does not explain the sign; nearly all actives have a fitted effect of over 65% in size; many hits overshoot -100%
# Target sequence (P80244 whole entry, looked up): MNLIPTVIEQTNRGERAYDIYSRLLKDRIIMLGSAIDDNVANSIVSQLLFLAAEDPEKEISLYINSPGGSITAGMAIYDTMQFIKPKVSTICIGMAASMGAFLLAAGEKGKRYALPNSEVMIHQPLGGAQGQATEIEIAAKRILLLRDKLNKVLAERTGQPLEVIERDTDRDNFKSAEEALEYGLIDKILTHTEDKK
#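 FRET quenching reversal measured ClpP activation: 10 microg/mL B. subtilis ClpP at pH 8 with the FRET-FV decapeptide, read at 430 nm after 320 nm excitation. The 20-min minus 0-min signal was scaled between DMSO/no-enzyme wells and ADEP (5.8 microM final).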
# PINK1 modulator – changes PINK1 expression | PINK1 immunofluorescence, high-content cytometry, 24 h | Potency, µM (highest dose often 76.6 µM), inactives show at the top dose activation (PINK1 increase), usual class: activators | 410,000 compounds, 0.2% hits; active = well fitted activation curve with a large enough effect; inconclusive = small, poorly fitted or top-dose-only effect; inactive = flat fitted curve, though single readings scatter; cell line not stated here;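 also: potency is read from the fitted curve at half-maximal effect; % of control where 0% means no effect; nearly all actives have a fitted effect of over 65% in size; a mitochondrial uncoupler was the plate control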
#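 PINK1 protein level read as immunofluorescence by microplate cytometer in a fixed, stained stable cell line after 24 h exposure to five compound concentrations, with CCCP as control.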
# Menin MLL FP FL – inhibitors of human menin-MLL interaction, wild-type MLL peptide | Fluorescence polarization, fluorescein-MLL peptide displacement from menin | 290,000 tested, under 10 active | AID 1766 | FP activity change, % at 61.4 µM; inconclusive = falling polarisation curve, or a change in total fluorescence; inactive = total fluorescence flat and polarisation flat or rising; no compound was filed as active; the % refers to the polarisation; negative = inhibition;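 also: % of control where 0% means no effect; inhibitors lower the polarisation; unlabelled MLL peptide was the positive control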
# * marks the source's active call; other numbers are inactive results; ? = inconclusive; . = not tested or not shown; & = joins results of further samples; [ ] = remark or other dose. A portion of the library; rates above refer to the full screens.
no.	Compound	TRPML1 blocker	TRPML1 ag	Sfp PPTase inh	TRPV1 PAM	ClpP mod	PINK1 modulator	Menin MLL FP FL
1	O=C1NC(=O)C(Cc2ccccc2)C(=O)N1	-2	2.6	.	.	.	-1.0%	.
2	O=C(CN1CCN(C(=O)COc2cccc(F)c2)CC1)Nc1ccc(Cl)c(C(F)(F)F)c1	7	0.0	.	-15	-0.1%	5.6%	.
3	Cc1c(N=Cc2c(O)n(C)c(=O)[nH]c2=O)c(=O)n(-c2ccccc2)n1C	1	0.8	12%	-2	-1.3%	-0.7%	3.5
4	Cc1ccnc(NC(=O)CCCc2ccc(N(CCCl)CCCl)cc2)n1	-2	0.0	.	.	0.4%	-1.5%	.
5	Cc1cc(/C=C2\C(=O)NC(=S)N(C)C2=O)c(C)n1C1CCCCC1	-8	0.5	?	3	-11%	8.9%	?
6	CN=C(SCc1ccccc1)c1c(O)n(C)c(=O)n(C)c1=O	1	2.4	1%	.	-1.9%	-0.7%	2.3
7	COc1ccc(C(=O)C2CCCN(Cc3ccc(C)s3)C2)c(OC)c1 (stereo not drawn)	11	1.0	5%	-3	.	0.4%	-0.3
8	Cc1ccc(C(O)P(=O)(Oc2ccccc2)Oc2ccccc2)cc1 (stereo not drawn)	-1	-0.9	.	?	1.9%	1.3%	.
9	CCOC(=O)c1c(/N=C/c2c(O)n(-c3cccc(C)c3)c(=O)[nH]c2=O)sc2c1CCCC2	0	-0.1	?	3	-14%	14%	9.0
10	Nc1nnc(CCN2CCCCC2)s1	-15	0.3	0%	-40	-6.0%	-0.2%	1.0
11	CC1CCCC(NC(=O)COC(=O)c2cn(C)c3ccccc23)C1C (stereo not drawn)	-2	0.8	.	-1	-0.6%	9.4%	.
12	O=C1CC=C2C3CC4N(CCC45c4cc(O)c(O)cc4N1C25)CC3=CCBr (stereo not drawn)	-2	0.5	.	.	35µM*	-3.6%	.
13	Cc1cc(/C=C2\C(=O)NC(=O)N(c3ccc(Br)cc3)C2=O)c(C)n1-c1cc(C(=O)O)cc(C(=O)O)c1	71	1.6	-2%	-5	-3.5%	1.2%	24
14	CCCN1CCO[C@@H]2c3cc(O)ccc3OC[C@H]21	-5	-0.9	28%&2%	3	2.1%	1.3%	3.3&4.4
15	Cc1ccc(N)c(N)c1	-7	-0.7	-26%	-24	-6.8%	1.2%	-1.6
16	O=P(O)(O)COc1ccccc1O	34	0.4	11%	0	-0.1%	1.7%[38.3 µM]	-0.4
17	O=C(NC(=C(Cl)Cl)P(=O)(c1ccccc1)c1ccccc1)c1ccccc1	-10	0.4	11%	-3	-0.6%	-2.8%	-1.2
18	CC(C)c1c(CN(C)C(C)Cc2ccccc2)n(C)n(-c2ccccc2)c1=O (stereo not drawn)	-13	0.9	.	-13	-1.2%	0.5%	.
19	Cc1c(C=O)c2ccccc2n1Cc1ccc([N+](=O)[O-])cc1	-4	2.0	0%	7	-1.1%	0.7%	-1.5
20	CCC(=NCCCn1ccnc1)c1c(O)n(-c2ccccc2)c(=O)[nH]c1=O	-11	0.7	14%	24	.	1.1%	4.0
21	COc1ccc(CN2CCN(c3ccccc3)CC2)c(C)c1C	-3	3.9	?	6	0.1%	0.2%	-3.9
22	CC1CCCN1CCC(C(N)=O)(c1ccccc1)c1ccccc1 (stereo not drawn)	-6	-0.1	.	.	.	0.5%	.
23	CC1CC(C)CC(C)C(O)C(C#N)=CC=CCC(C2CCCC2C(=O)O)OC(=O)CC(O)C(C)C1 (stereo not drawn)	12	0.4	.	.	0.4%	-5.5%	.
24	CCOc1ccccc1CN1C2CCC1CC(c1ccc(C)cc1)C2 (stereo not drawn)	-16	3.0	7%	7	2.4%	11%	-1.4
25	CCCCn1c(O)c(C(C)=NCc2ccco2)c(=O)[nH]c1=O	-1	-0.8	6%	-10	-0.1%	1.9%	4.4
26	c1cc2c(cc1N1CCCCC1)C1CC2CCN1 (stereo not drawn)	-3	0.9	.	.	-6.2%	-1.5%	.
27	CC1CN=C(NCCc2ccccc2)S1 (stereo not drawn)	49	0.0	-7%	0	.	0.2%	-1.0
28	Cc1ccc(-n2c(CNCc3ccc(F)cc3)nc3ccccc3c2=O)cc1	-17	-0.2	14%	25	1.6%	-0.5%	-0.6
29	Cc1nc2ccccc2c(=O)n1-c1ccccn1	-15	-0.9	11%	7	-2.0%	-1.4%	-0.3
30	c1cc2c(cc1NC1=NCCO1)CCCC2	-6	-0.4	.	.	-13%	3.4%	.
31	C[C@]12CC[C@@H](O)CC1=CCC1C2CC[C@@]2(C)C1CC[C@@H]2N (stereo partly drawn)	-9	0.0	.	.	.	-0.5%	.
32	O=P(OCC(F)(F)C(F)F)(N1CCOCC1)N1CCOCC1	-2	-1.1	18%	4	1.7%	2.3%	?
33	CCOC(=O)c1c(C)[nH]c(C(=O)C(Cc2ccccc2)N(C)C)c1C (stereo not drawn)	7	0.2	4%	4	-1.3%	4.3%	1.5
34	CCC(=NCc1ccco1)c1c(O)n(C2CCCCC2)c(=O)[nH]c1=O	1	0.7	-7%	4	0.1%	-0.7%	14
35	O=C1CC(c2ccccc2)CN1 (stereo not drawn)	18	2.8	14%	-5	-2.2%	-2.0%	4.0
36	CCN(CC)CCNC(=O)c1c(O)c2ccccc2n(Cc2ccccc2)c1=O	17	0.3	2%	3	-5.5%	0.3%	-1.5
37	Cc1ccc(C2C(S(C)(=O)=O)=C(O)C(=O)N2c2ccccc2)cc1 (stereo not drawn) (tested in a mixture with another compound)	21	0.3	7%	-5	-13%	-1.8%	-1.4
38	O=[N+]([O-])c1ccccc1-c1cc(-c2ccccc2)cc(-c2ccccc2)[n+]1Cc1ccccc1Cl	2	-0.8	.	?	0.8%	?	.
39	CCC(=NCCCN(C)C)c1c(O)n(-c2ccc(OC)cc2)c(=O)[nH]c1=O	5	0.0	-2%	-17	1.0%	-1.5%	4.2
40	c1ccc(C(CN2CCCCC2)c2ccccc2)cc1	13	-0.4	.	.	1.6%	1.4%	.
41	COC(=O)N1Cc2ccccc2-n2nncc2C1	-5	-0.4	.	.	0.8%	0.4%	.
42	C#C[C@]1(O)CC[C@H]2[C@@H]3[C@H](O)C[C@H]4C[C@@H](O)CC[C@]4(C)[C@H]3CC[C@@]21C	-7	0.0	.	.	0.9%	1.7%	.
43	COc1ccccc1Cn1c(SCC#N)nc2cc(C(=O)N3CCC4(CC3)OCCO4)ccc2c1=O	4	-0.2	6%	16	.	3.5%	7.3
44	COc1ccc(CC2(CCc3ccncc3)C(=O)NC(=O)NC2=O)cc1OC	2	0.1	9%	5	-1.8%	-0.3%	-3.2
45	COc1ccc(C2SCC(=O)Nc3c2c(C)nn3C2CCOC(C)(C)C2)cc1 (stereo not drawn)	1	0.3	0%	-10	-2.7%	3.3%[38.3 µM]	3.9

# From compound 44 to 45, copied from above:
no.	Compound	TRPML1 blocker	TRPML1 ag	Sfp PPTase inh	TRPV1 PAM	ClpP mod	PINK1 modulator	Menin MLL FP FL
44	COc1ccc(CC2(CCc3ccncc3)C(=O)NC(=O)NC2=O)cc1OC	2	0.1	9%	5	-1.8%	-0.3%	-3.2
45	COc1ccc(C2SCC(=O)Nc3c2c(C)nn3C2CCOC(C)(C)C2)cc1 (stereo not drawn)	1	0.3	0%	-10	-2.7%	3.3%[38.3 µM]	3.9

# (further entries)
no.	Compound	TRPML1 blocker	TRPML1 ag	Sfp PPTase inh	TRPV1 PAM	ClpP mod	PINK1 modulator	Menin MLL FP FL
46	CN(C(=O)Oc1ccc(C(C)(C)C)cc1)c1ccccc1	-4	0.5	15%	-10	.	3.6%	-9.2
47	CC(C)c1ccc(OCC(=O)N2CCN(CCc3ccccn3)CC2)cc1	9	0.0	.	.	0.7%	0.6%	.
48	OCCOCCO	.	.	.	-4	-8.5%	0.6%	.
49	CCc1ccc(N2C(=O)NC(=O)C(Cc3ccc(OC)cc3OC)C2=O)cc1 (stereo not drawn)	-4	0.0	50µM*	-16	-0.7%	-1.5%	3.2
50	CC1=C(C(=O)O)N2C(=O)C(NC(=O)CCCC(=O)O)C2SC1 (stereo not drawn)	-17	-0.2	-4%	-1	.	-1.0%	-0.9
51	COC(=O)CCC(=O)Nc1sc(Cc2ccccc2)c(C)c1C(N)=O	-7	-0.5	3.2µM*	-3	.	-0.2%	7.5
52	O=C(COC(=O)Cc1ccccc1)Nc1cccnc1Cl	35	-0.3	0%	-11	-0.8%	1.3%	4.1
53	O=C1C2CCCC1C(N1CCCC1)CC2 (stereo not drawn)	-15	-0.2	-7%	2	.	2.3%	0.4
54	C=CCn1c(O)c(C=NCCN(C)C)c(=O)[nH]c1=O	3	0.1	17%	5	-2.7%	-1.8%	?
55	Cn1c(O)c(C=NCc2ccco2)c(=O)n(C)c1=O	-6	0.1	-5%	-3	-0.8%	-0.3%[38.3 µM]	6.9
56	CN(C)P(=O)(N(C)C)N1CC1	9	-0.1	.	.	.	-2.1%	.
57	CC(=O)c1cc(C#N)c(N2CCN(C)CC2)nc1C	-5	0.8	21%	3	.	-0.6%	0.2
58	Cc1ccc(S(=O)(=O)N2Cc3cnnn3-c3ccccc3C2C#N)cc1 (stereo not drawn)	50	3.4	.	.	-2.8%	1.2%	.
59	N=Cc1c(O)n(-c2ccccc2)c(=O)n(-c2ccccc2)c1=O	10	4.0	11%	7	1.1%	0.6%	4.2
60	O=c1[nH]c(=O)n(Cc2ccc(F)cc2)c(O)c1C=NCCCN1CCOCC1	-7	-0.1	25%	3	-0.3%	-1.9%	0.4
61	Cc1cccc(C(O)(C(=O)O)c2ccccc2)c1 (stereo not drawn)	5	-0.4	.	.	0.3%	-3.1%	.
62	CC12CN3CC(C)(CN(C1)C3c1cccnc1)C2=O (stereo not drawn)	-6	-0.6	26%	-2	0.6%	-0.6%	2.3
63	COc1ccc2[nH]c3c(c2c1)CCNC3C (stereo not drawn)	4	-0.4	12%&9%	6	.	-0.4%	1.4
64	Cc1cccc(CS(=O)(=O)Cc2ccc(C(=O)N3CCC4(CC3)OCCO4)o2)c1	-14	-0.5	3%	-4	-3.0%	-1.0%	1.4
65	CN(Cc1cccc(-c2ccncc2)c1)C(=O)Oc1ccccc1Cc1ccccc1	.	0.0	.	.	0.4%	29%	.
66	O=C(Cc1ccccc1)Oc1cccc(N2C(=O)CCC2=O)c1	13	-0.6	10%	10	-1.2%	-0.3%	0.0
